GIV-Gai inh – inhibitors of GIV GBA-motif binding to rat Galpha-i3. AID 1224905. 210,000 compounds, 0.42% hits. P08753. Galpha-i3/FITC-GIV peptide fluorescence polarization, 90 min; stronger effect = lower value; scaled: aluminum fluoride 0%, vehicle 100%. percent of control (FP), % (concentration not given with the values);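 active = replicate mean at 85% of control or lower, very high polarization wells dropped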;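 also: wells of about 15 µL received 100 nL stock; the first replicate is given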
Target sequence (P08753 whole entry, looked up): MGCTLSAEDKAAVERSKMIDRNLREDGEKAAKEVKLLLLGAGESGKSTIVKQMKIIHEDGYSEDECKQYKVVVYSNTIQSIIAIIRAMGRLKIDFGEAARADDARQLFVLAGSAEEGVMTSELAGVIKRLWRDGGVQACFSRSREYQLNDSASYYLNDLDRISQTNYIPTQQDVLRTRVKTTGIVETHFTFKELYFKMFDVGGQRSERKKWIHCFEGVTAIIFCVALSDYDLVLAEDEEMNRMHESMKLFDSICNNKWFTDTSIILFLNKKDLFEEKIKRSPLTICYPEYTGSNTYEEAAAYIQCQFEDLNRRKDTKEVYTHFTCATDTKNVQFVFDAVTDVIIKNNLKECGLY
* = called active by the depositor. This is a subset, so the mix of outcomes need not match the whole.

molecule | GIV-Gai inh
COc1ccc(C2/C(=C(/O)c3ccc(F)cc3)C(=O)C(=O)N2c2nccs2)cc1OC (centres undefined) | 111.7
CCCc1cc(C(=O)N2CCCC2c2c(C)noc2CC)no1 (centres undefined) | 96.5
COc1ccc(N2CCN(S(=O)(=O)c3ccc(F)c(C(=O)Nc4ccc(Cl)c(Cl)c4)c3)CC2)cc1 | 107.5
CC1CCN(Cc2cc(=O)[nH]c(C(C)C)n2)CC1 | 101.4
CCc1ccc(NC(=O)c2ccc(F)c(S(=O)(=O)NC3CCCCC3)c2)cc1 | 104.6
Cc1ccc(CSc2nccc3c2ccn3CC(=O)N2CCN(c3ccccn3)CC2)cc1 | 102.0
COc1ccc(Oc2cc3c(cc2S(=O)(=O)N(C)C)C(=O)Nc2ccccc2O3)cc1 | 105.1
Cc1ccccc1C(=O)Nc1ccc(C(=O)N2CCCC2C(=O)NCCC(C)C)cc1 (centres undefined) | 102.1
CC(C)C(=O)N1CCN(Cc2noc(-c3ccccc3)n2)CC1 | 103.6
CN(c1ccc(Br)cc1)S(=O)(=O)c1ccc2[nH]cc(C(=O)NCc3ccco3)c(=O)c2c1 | 105.6
COc1ccc(NC(=O)CSc2nc3c(cc2C#N)CCCC3)cc1 | 103.4
COc1ccc(C2C3C(=O)N(Cc4ccccc4)C(=O)C3ON2c2ccccc2)cc1 (centres undefined) | 109.6
CCC(=O)N1c2ccc(C)cc2-c2c(ssc2=S)C1(C)C | 112.1
COc1cc(CN2CCCC2c2c(C)noc2C)ccc1OCC(C)C (centres undefined) | 102.2
Cc1cccn2c(=O)cc(COc3ccc(NC(=O)CN4C(=O)c5ccccc5C4=O)cc3)nc12 | 103.5

New compounds follow.
molecule | GIV-Gai inh
CCCS(=O)(=O)c1c(S(=O)(=O)CCC)c2cc(-c3ccncc3)ccn2c1C(=O)N/N=C/c1ccncc1 | 113.6
O=c1c2cc3c(cc2nc(SCc2nc(-c4ccccc4)no2)n1CC1CCCO1)OCO3 (centres undefined) | 105.2
CS(=O)(=O)n1c(SCC(=O)Nc2ccc(OC(F)(F)F)cc2)nc2ccccc21 | 104.1
COCc1nncn1C1CCNCC1 | 103.2
CCc1ccc(NS(=O)(=O)c2cc(-c3ccn[nH]3)sc2C)cc1 | 102.9
O=C1c2ccccc2NC2(C(=O)N(Cc3cccc4ccccc34)c3ccccc32)N1c1ccccc1 (centres undefined) | 103.8
COc1ccc(OC)c(NC(=O)c2sc(=S)n(-c3ccccc3)c2N)c1 | 115.7
Cc1cc2c(cc1S(=O)(=O)N(C)CC(=O)NC1CCCC1)OCC(=O)N2 | 103.0
N#CC1=C(N)Oc2n[nH]c(-c3ccc(F)cc3)c2C1c1ccc(OC(=O)N2CCOCC2)cc1 (centres undefined) | 108.3
COc1cc(C2C(C(=O)Nc3cccc(F)c3)=C(C)NC3=C2C(=O)CC(C)(C)C3)cc(OC)c1OC (centres undefined) | 104.6
CC(C)c1ccc(C(=O)N2CCC(c3noc(-c4cccc(F)c4)n3)CC2)cc1 | 102.0
COc1ccc(OC)c(NC(=O)N2CCc3nc[nH]c3C2)c1 | 107.5
CC(C)(C)c1cc(CCC(=O)OCCN(CCOC(=O)CCc2cc(C(C)(C)C)c(O)c(C(C)(C)C)c2)CCOC(=O)CCc2cc(C(C)(C)C)c(O)c(C(C)(C)C)c2)cc(C(C)(C)C)c1O | 101.8
CCC(=O)Nc1c(-c2ccc(C)cc2)nc2cc(C)ccn12 | 98.6
CNCC1OC(C23CC4CC(CC(C4)C2)C3)Cc2c1ccc(O)c2O (centres undefined) | 103.5

Following part.
molecule | GIV-Gai inh
CC(C)CN(CC(C)C)C(=O)c1cc(NC(=O)c2ccc(F)cc2)cnc1N1CCNCC1 | 95.2
C=CCSc1c(CC)cnc2c1c(=O)n(C)c(=O)n2C | 99.6
COc1ccc(NC(=O)COc2ccc(-c3cnc4ccccc4n3)cc2)cc1OC | 106.5
O=C(Nc1ccc2c(c1)OCCO2)N1CCN(C(=O)c2nsc3ccccc23)CC1 | 99.2
N#Cc1c(N)nc(SCC(=O)OCc2ccccc2)c(C#N)c1-c1ccccc1Cl | 105.0
Cc1cc(NC(=O)Cn2c(=O)n(C(C)C)c3ccc(-c4noc(C)n4)cc32)no1 | 105.9
O=C(NCc1ccco1)/C(=C/c1ccc(Cl)cc1)NC(=O)c1ccccc1 | 116.1
CN(CCc1noc(-c2cc3cc(Cl)ccc3[nH]2)n1)C(=O)C1CCC1 | 98.8
O=C(CSc1nc2cc(C(=O)NCc3ccco3)ccc2c(=O)n1Cc1ccco1)NCCC1=CCCCC1 | 114.1
Cc1cc(C2CCCN2Cc2cn[nH]c2-c2cccc(Br)c2)no1 (centres undefined) | 106.5
O=C(NCCc1cccs1)c1cc2c(s1)CN(C1CCCC1)C2 | 98.5
COc1ccc(O)c(-c2ccncn2)c1 | 104.8
Cn1c(SCc2nc(-c3ccc4c(c3)OCO4)no2)nc2cc3c(cc2c1=O)OCO3 | 104.8
CCN(CC)c1ncc2c(n1)CCC(C(=O)N1CCOCC1)C2 (centres undefined) | 103.1
CCOC(=O)N1CCN(C(=O)c2sc3ncn(CC(=O)Nc4ccc(C)c(Cl)c4)c(=O)c3c2C)CC1 | 105.3

The list continues:
molecule | GIV-Gai inh
OC(CNC1CC1)Cn1c2ccccc2c2ccccc21 (centres undefined) | 110.1
CCOc1cc(CNC(=O)CN2C(=O)CN(C(=O)Nc3ccccc3)c3ccccc32)ccc1OC | 98.2
CCOc1nc(NCCN2CCOCC2)nc(Nc2ccc(C)cc2)n1 | 111.6
CS(=O)(=O)N(CC(=O)Nc1ccc(Oc2ccccc2)cc1)c1cc(C(F)(F)F)ccc1Cl | 114.0
COc1cc(Br)c(/C=C2\C(=O)N(c3ccc(Cl)c(C(=O)O)c3)N=C2C)cc1OC | 111.7
COc1ccc(/C=C2\N=C(c3ccc(Cl)cc3)N(c3cc(C)cc(C)c3)C2=O)cc1OC | 120.7
O=C(Nc1ccc2c(c1)OCCO2)c1ccc(N2CC3CC(C2)c2cccc(=O)n2C3)c(NC(=O)c2ccccc2Cl)c1 (centres undefined) | 108.6
COc1ccccc1N1CCN(S(=O)(=O)c2cc(-c3nnc(C4CCC4)o3)co2)CC1 | 98.9
Cc1sc2ncn(CC(=O)NCC(=O)N3CCN(c4ccccc4)CC3)c(=O)c2c1C | 110.7
Cc1ccc([N+](=O)[O-])cc1-n1c(C)c(CC(Cl)(Cl)Cl)c2c1CC(C)(C)CC2=O | 106.6
COc1ccc(OC)c(NC(=O)N2CCCN(c3nc4cccnc4s3)CC2)c1 | 100.2
Cc1nn(-c2ccc3nncn3n2)c(C)c1CCC(=O)N1CCCC1 | 100.9
CCOC(=O)C1CCN(C(=O)C2CCN(c3cc(C)c4cc(NC(C)=O)ccc4n3)CC2)CC1 | 97.2
Cc1nc(CCNC(=O)[C@H]2CCCN2S(=O)(=O)c2ccc(F)cc2)cs1 | 97.1
COc1ccc(OC)c(NC(=O)C2CCN(c3nc4ccccc4nc3OC)CC2)c1 | 99.6

Continued:
molecule | GIV-Gai inh
CCSc1nc(N)c2c3c(sc2n1)CN(Cc1ccccc1)CC3 | 104.2
CCC(C)NC(=O)c1c(-c2cccc(Br)c2)noc1C (centres undefined) | 100.3
COc1ccc(C2=Nc3cccc4cccc(c34)N2)cc1 | 110.9
COc1ccc(-c2nc(-c3ccc4c(c3)C(=O)c3ccccc3-4)c(-c3ccccc3)[nH]2)cc1OC | 109.8
Cn1nc(-c2nc(-c3ccccc3)no2)c2c1CCN(S(=O)(=O)c1cccc3cccnc13)C2 | 106.4
CCOc1cc(/C=c2\sc3nc4cc(C)c(C)cc4n3c2=O)ccc1OCc1ccc(F)cc1 | 101.5
O=C(Nc1cc(F)c2nc(N3CCOCC3)ccc2c1)C1CCCC1 | 104.6
CCc1ccc(N/C(SCc2cccc(F)c2)=C(/C#N)C(=O)NCc2ccco2)cc1 | 104.8
O=C(Nc1ccccc1)Nc1ccc(CCc2nc3ccccc3[nH]2)cc1 | 97.4
CCc1nnc(NC(=O)CSc2nnc3[nH]c(=O)cc(C)n23)s1 | 106.1
O=C(CCCn1c(SCC(=O)N2CCN(c3ccccc3)CC2)nc2ccccc2c1=O)NCc1ccco1 | 106.9
Cc1cc(C)cc(C(=O)N(CCc2ccccc2)C2=CC3CCC(C2)N3C)c1 (centres undefined) | 99.4
CC(C)CCn1nc2c(S(=O)(=O)N3CCCCC3)cccn2c1=O | 106.2
CCOC(=O)C1=C(c2ccccc2)OC(N)=C(C#N)C1c1cc2ccccc2nc1Cl (centres undefined) | 109.7
Cc1ccccc1C(=O)N1CCC(c2ccncc2)CC1 | 95.9

More results:
molecule | GIV-Gai inh
CCOc1cc(C2C(C#N)=C(N)Oc3n[nH]c(-c4ccc(OC)cc4)c32)ccc1OC(=O)c1ccco1 (centres undefined) | 111.1
CC(C)c1ccc(S(=O)(=O)Nc2cnc(N3CCNCC3)c(C(=O)N3CCCCC3C)c2)cc1 (centres undefined) | 103.7
COc1ccc(N2C(=O)CC(c3ccc([N+](=O)[O-])cc3)C3=C2CC(C)(C)CC3=O)cc1 (centres undefined) | 104.4
CCS(=O)(=O)c1nc2ccc(NS(=O)(=O)c3ccc4c(c3)oc(=O)n4C)cc2s1 | 102.4
CC(C)c1ccc(S(=O)(=O)N2CCCC2c2nc(-c3ccccc3)no2)cc1 (centres undefined) | 97.6
CCc1cc(-c2csc(S(=O)(=O)N(Cc3ccccc3)C(C)C)c2)on1 | 101.8
COc1ccc(-c2cc3cc(OC)c(OC)cc3c(C)n2)cc1C | 113.7
Cc1ccc(N2C(=O)N(Cc3ccc(C(C)(C)C)cc3)c3ccccc3S2(=O)=O)cc1 | 103.6
CCc1ccc(N2CC(O)(c3ccc([N+](=O)[O-])cc3)[N+]3=C2SCCC3)cc1 (centres undefined) | 102.3
CCOC(=O)C1=CN(Cc2ccc(OC)c(OC)c2)C=C(C(=O)OCC)C1c1ccc(Br)cc1 | 106.8
Nc1ccc2nc(SCC(=O)Nc3ccc4c(c3)oc3ccccc34)sc2c1 | 108.7
Cc1ccc(C(=O)COC(=O)c2ccccc2N2C(=O)C3CC=CCC3C2=O)cc1[N+](=O)[O-] (centres undefined) | 99.1
CCOc1ccc(Oc2nc3ccccc3n3cnnc23)cc1 | 97.8
O=c1/c(=C/c2ccc(Cl)cc2Cl)sc2nnc(-c3ccccc3)n12 | 99.9
CC(C)COc1ccc(C2Nc3ccccc3C(=O)N2c2ccc(Br)cc2)cc1 (centres undefined) | 106.7

Further compounds.
molecule | GIV-Gai inh
CCOc1ccc(NC(=O)C2CC(=O)N(CC)C(=Nc3ccc(OC)cc3)S2)cc1 (centres undefined) | 98.4
CC1(C)c2ssc(=S)c2-c2ccccc2N1C(=O)c1ccccc1Cl | 109.6
COc1ccccc1N1CCN(C(=O)C2CCN(c3ncnc4c3oc3ccccc34)CC2)CC1 | 106.2
COC(=O)c1ccc(NC(=O)Cn2cnc3c(sc4ncccc43)c2=O)cc1 | 99.0
COc1ccc(-n2nc(C(=O)NCCCN3CCC(C)CC3)c3ccccc3c2=O)cc1 | 100.4
CC12CCC(CN(CC(O)Cn3c4ccc(Cl)cc4c4cc(Cl)ccc43)C1)C2(C)C (centres undefined) | 113.0
COc1cccc(CNS(=O)(=O)c2cc(-c3cc(C(F)(F)F)on3)sc2C)c1 | 100.3
CCCCNC(=O)C(CC)Sc1nc2cc(C(=O)NCCOC)ccc2c(=O)n1Cc1ccc2c(c1)OCO2 (centres undefined) | 104.9
Cc1ccc(Cl)cc1NC(=O)/C(=C/c1ccc2c(c1)OCO2)NC(=O)c1ccccc1Br | 112.9
COc1ccc(C2CC(=O)C3=C(C2)Nc2ccccc2NC3c2ccc(Br)cc2)cc1OC (centres undefined) | 102.7
CCOc1ccc(-n2c(SCC(=O)Nc3nnc(SCC)s3)nc3c(c2=O)SCC3)cc1 | 112.2
CCn1c(=O)c(=O)n(CC(=O)NC2CCCc3ccccc32)c2cccnc21 (centres undefined) | 97.7
CNC(=O)CCC(=O)N1c2ccccc2NC2=C(C(=O)CC(C)(C)C2)C1c1cccs1 (centres undefined) | 101.4
CC1CCC(NC(=O)c2sc3ncccc3c2-n2cccc2)CC1 (centres undefined) | 107.0
CSc1nc(N)nc(SCC(=O)NC23CC4CC(CC(C4)C2)C3)c1C#N | 107.2

Later entries.
molecule | GIV-Gai inh
CC1(C)C(=O)N(CC2(C)CC2(Cl)Cl)C(=O)N1C(=O)c1ccccc1 (centres undefined) | 100.1
C=CCN1C2=NCCN2c2ccccc21 | 101.7
COc1ccc(OC)c(CNC(=O)c2cccc(Oc3cc(-c4ccccc4)ncn3)c2)c1 | 99.2
COc1cc(OC)c(NC(=O)N2CCCCCC2c2ccc(C)s2)cc1Cl (centres undefined) | 102.7
CC(C)c1nnc(-c2coc(S(=O)(=O)N3CCCCC3)c2)o1 | 105.8
Nc1c2c3c(c(Cl)ccc3[nH]c1=O)C(=O)c1ccccc1-2 | 102.3
COc1ccc(NC(=O)c2ccc3ncc4c(=O)n(-c5ccc(F)cc5)[nH]c4c3c2)cc1Cl | 107.1
COCCn1c(C2CCN(S(=O)(=O)Cc3ccc(Cl)cc3)C2)nc2cccnc21 (centres undefined) | 98.0
Cc1cc(C)cc(NC(=O)CCc2c(C)nn(-c3ccc4nnc(C)n4n3)c2C)c1 | 98.8
CCOC(=O)c1sc2ncnc(N3CCN(Cc4ccc5c(c4)OCO5)CC3)c2c1C | 107.4
CC(C)OC(=O)c1nnn(-c2nonc2N)c1CN1CCN(c2ccccn2)CC1 | 104.6
Cc1ccccc1N1C(=O)/C(=C/c2ccc(Br)cc2)C=C1c1ccccc1 | 114.1

5 records picked at random from those above, as already listed:
molecule | GIV-Gai inh
COCCn1c(C2CCN(S(=O)(=O)Cc3ccc(Cl)cc3)C2)nc2cccnc21 (centres undefined) | 98.0
CC(C)OC(=O)c1nnn(-c2nonc2N)c1CN1CCN(c2ccccn2)CC1 | 104.6
Nc1c2c3c(c(Cl)ccc3[nH]c1=O)C(=O)c1ccccc1-2 | 102.3
COc1cc(OC)c(NC(=O)N2CCCCCC2c2ccc(C)s2)cc1Cl (centres undefined) | 102.7
CC(C)c1nnc(-c2coc(S(=O)(=O)N3CCCCC3)c2)o1 | 105.8

High-throughput results from PubChem BioAssay.
